Vaccinia Venus – vaccinia inhibition (Venus reporter). hit rate 0.46% among 330,000. Potency, µM (series often up to 36.5 µM), inactives show top-dose activity change, negative = inhibition, actives largely listed as inhibitors. Vaccinia virus Venus reporter expression, fluorescence. AID 720580; active means well fitted inhibition curve with a large enough effect; inconclusive means small, poorly fitted or top-dose-only effect; inactive means no such curve, though single readings can be large or run the other way; tested in A549 cells; further: nearly all actives have a fitted effect of over 30% in size; inactives centre near -10
Vaccinia mCherry – vaccinia inhibition (mCherry reporter). Vaccinia virus mCherry reporter infection, fluorescence; about a quarter of the inactives have no number. Potency, µM (highest dose often 36.5 µM), for the others: at the highest dose activity change, negative = inhibition, actives largely listed as inhibitors. hit rate 0.63% among 310,000. AID 720579; active = well fitted inhibition curve with a large enough effect; inconclusive = small, poorly fitted or top-dose-only effect; inactive = no such curve, though single readings can be large or run the other way; tested in A549 cells; further: nearly all actives have a fitted effect of over 35% in size; inactives centre near -10
* marks the source's active call; other numbers are inactive results; i = inactive; u = inconclusive; x = no result given; [ ] = remark or other dose. On the % scale 0 is the no-effect control and ±100 the full control effect; potency means the concentration at half of the fitted maximal effect. No enrichment for hits; any-hit rate near 0.87%.

SMILES	Vaccinia Venus	Vaccinia mCherry
COc1cccc(CC(NC(C)=O)C(=O)NC2CCN(S(=O)(=O)c3ccc(F)cc3)CC2)c1OC (centres undefined)	-4.3%	-5.7%
CN1CCN(C(=O)c2ccc(Cl)c(S(=O)(=O)N3CCCCCC3)c2)CC1	-14.6%	-2.9%
FC(F)(F)C1CC(c2cccs2)Nc2ncnn21 (centres undefined)	-16.8%	-15.4%
Cc1nc2cc(NC(=O)[C@@H]3C[C@@H](Sc4ccccn4)CN3Cc3ccccc3C)ccc2s1	0.2%	-12.9%
COc1ccc(C(=O)N2CCCC(Nc3ccc(C)c(C)c3)C2)c(OC)n1 (centres undefined)	-9.4%	i
CN(C)C(CNC(=O)C1CCN(S(=O)(=O)c2ccccc2C(F)(F)F)CC1)Cc1ccccc1 (centres undefined)	-18.6%	i
O=Cc1ccc(Oc2cccc(C(F)(F)F)c2)nc1	-2.0%	-1.8%
Cc1nc(NC(=O)c2cncc(Br)c2)ccc1Br	-22.3%	-0.3%
COc1ccc(NC(=O)C2=C(C)C(=O)OC23CCN(C(C)C)CC3)cc1Cl	-5.2%	-6.1%
COc1ccc(OC)c(NC(=O)CCCNC(=O)Cn2cnc3sc(C)c(C)c3c2=O)c1	-17.3%	-19.1%
O=C(NCC(c1ccc(Cl)cc1)N1CCOCC1)c1ccccc1F (centres undefined)	0.8%	-11.9%
CS(=O)(=O)N(CC(N)=O)c1ccc2c(c1)OCO2	-15.2%	x
CCOc1ccccc1NC(=O)C(=O)N/N=C/c1cc(Br)ccc1O	-19.7%	u
COc1cc(/C=C2/CC/C(=C/c3ccc(O)c(OC)c3)C2=O)ccc1O	169.6%[activator]	-15.0%
CCOc1cccc(-c2cc(C(=O)NN)[nH]n2)c1	-4.8%	-20.7%
Cc1cc(C(=O)NC2CCCCC2)c2cc(F)ccc2n1	-5.3%	i
CCOc1ccc(C(=O)NC2CCCCCCC2)cc1	-17.9%	-22.3%
O=C(O)COc1ccccc1C(Nc1cccnc1)c1cc(Cl)c2cccnc2c1O (centres undefined)	-2.1%	-2.0%
CC1CN(C(=O)COC(=O)/C=C/c2cccc([N+](=O)[O-])c2)CC(C)O1 (centres undefined)	u	u
COCCOC(=O)C(C#N)c1nc2ccccc2nc1N1CCCC1 (centres undefined)	-12.4%	-14.7%
O=C(Cn1cccc1C(=O)c1ccccc1)NCc1ccco1	-10.1%	x
Cc1ccc(C(=O)O)cc1NS(=O)(=O)c1ccc2c(c1)oc(=O)n2C	1.9%	-0.4%
Cc1ccc(SC(CC(=O)c2ccc(F)cc2)C(=O)O)cc1 (centres undefined)	-6.7%	-4.8%
Cc1cc(C)c(S(=O)(=O)NCCc2cc3c(C)ccc(C)c3[nH]c2=O)c(C)c1	-1.5%	0.7%
CCC(C(=O)NC1CCCC1)N(Cc1ccco1)C(=O)Cn1nnc(-c2ccc(C)cc2)n1 (centres undefined)	-12.9%	i
CCN(C[C@H]1N[C@@](CC)(C(=O)OC)[C@H]2C(=O)N(C)C(=O)[C@@H]12)S(=O)(=O)c1ccc(OC)cc1	0.1%	-11.5%
CCOC(=O)/C=C/C(=O)OCC(=O)Nc1cccc(Cl)c1Cl	-19.8%	-13.2%
Cc1oc(-c2ccc(C(=O)NCCC(C)C)cc2)nc1CS(=O)(=O)c1ccccc1	-10.3%	-8.8%
Cc1cc(NC(=O)C(=O)NCCN2CCN(C(=O)c3cccs3)CC2)ccc1Br	-11.8%	i
O=C(c1cc2ccccn2n1)N1CCC2(CC1)OCCO2	-14.3%	i
NC(c1ccccc1)c1csc(Nc2ccccn2)n1 (centres undefined)	-17.1%	-25.8%
O=C(C[n+]1csc2ccccc21)c1ccc(I)cc1	-10.4%	-11.8%
COc1ccc(C2(C)NC(=O)N(CC(=O)Nc3ccc(C)cc3Br)C2=O)cc1OC (centres undefined)	2.8%	-15.7%
CCCc1nc2nc(C)c(NS(=O)(=O)c3ccc([N+](=O)[O-])cc3)c(=O)n2[nH]1	-13.3%	-4.5%
Cn1c(=O)[nH]c(=O)c2c1nc(CN1CCN(c3ccccc3F)CC1)n2CC(N)=O	-0.3%	i
COCCN(C(=O)CSc1nnc(-c2ccc(F)cc2)n1N)c1c(N)n(CC(C)C)c(=O)[nH]c1=O	-8.5%	i
CCNC(=S)SCCOc1ccccc1C	-6.8%	-12.7%
CCOc1ccc(NC(=O)Cn2c(C)cc3ccccc3c2=O)cc1	-1.1%	-5.8%
O=C(O)[C@H]1CCCN1C(=O)c1ccccc1N1C(=O)[C@@H]2Cc3c([nH]c4ccccc34)C(c3cccc(Cl)c3)N2C1=O (some centres undefined)	-5.6%	-4.5%
COCCNc1ccc(-c2nc(-c3ccco3)no2)cc1[N+](=O)[O-]	-7.4%	-13.9%
COCCCNCCOCCOc1ccccc1-c1ccccc1	-22.1%	-24.3%
CCOC(=O)N1CCN(C(=S)Nc2ccc(C)cc2)CC1	-15.0%	i
CN(C)c1nc(N)nc(-c2nc3ccccc3s2)n1	-13.9%	i
CCC1C(=O)NCCN1Cc1ccc2c(c1)CN(Cc1ccc(OC)c(OC)c1)CCO2 (centres undefined)	u	-2.4%
CC(=O)Nc1cccc(NC(=O)CSc2nnnn2C(C)C)c1	-17.2%	-24.8%
Cn1cc(S(=O)(=O)N2CCCC2)cc1C(=O)NCc1ccc(F)cc1	-3.7%	-23.5%
COc1ccc(NS(=O)(=O)c2cc(NC(=O)CCc3ccccc3)ccc2N2CCOCC2)cc1	-16.8%	-26.4%
Cc1cc(CNC(=O)CC2C(=O)NCCN2CC(c2ccccc2)c2ccccc2)on1 (centres undefined)	3.1%	-8.9%
CCc1ccc(N2CC(C(=O)Nc3nnc(CC)s3)CC2=O)cc1 (centres undefined)	-20.0%	-16.7%
Cn1c(=O)cc(SCC(=O)NCCc2ccc(Cl)cc2)c2cc(Cl)ccc21	-11.1%	-19.7%
COc1ccc(C(NC(=O)C2CCN(CCCc3ccccc3)CC2)c2ccccn2)cc1 (centres undefined)	-17.6%	i
CCOC(=O)CCCCCC(=O)Nc1ccc2c(c1)C(=O)N([C@@H](C)CO)C[C@@H](C)[C@H](CN(C)S(=O)(=O)c1cccs1)OCCCC[C@H](C)O2	-9.7%	i
CCN1C(=O)/C(=C2\C=Cc3cc(C)ccc3N2CC)OC1=S	-2.1%	x
O=C(CCC(C(=O)O)N1C(=O)c2ccccc2C1=O)Nc1ccccc1 (centres undefined)	-9.6%	i
Cc1ccc(OCC(O)C(C)NC(C)C)c2c1CCC2 (centres undefined)	-29.8%	u
CCc1cc(=O)oc2c(C)c(OCC(=O)N3C[C@H]4C[C@@H](C3)c3cccc(=O)n3C4)ccc12	-4.2%	-2.1%
CCOc1cccc(C(=O)NC(=S)Nc2cccc(C)c2)c1	-6.8%	-19.7%
CC1=NN(C(=O)c2nn(C)cc2Br)C(O)(C(F)(F)F)C1 (centres undefined)	-14.2%	-28.2%
CN(/N=C/c1ccc2c(c1)OCO2)c1ccccc1	-11.8%	-19.6%
CCOc1ccc(N(CC)S(=O)(=O)N2CCCC(C(=O)Nc3ccc(C(C)=O)cc3)C2)cc1 (centres undefined)	-7.7%	-12.3%
More structures
SMILES	Vaccinia Venus	Vaccinia mCherry
O=C1c2ccccc2C(Nc2ccc(S(=O)(=O)N3CCCCCC3)cc2)N1c1ccccn1 (centres undefined)	-4.8%	-10.5%
COc1cc(/C=N/Nc2ccc(Cl)c(C(=O)O)c2)ccc1OC(=O)c1cccs1	1.8%	12.8%
COc1ccc(S(=O)(=O)N(Cc2nc(-c3ccc(C)cc3)no2)C2CCCCC2)cc1	-13.0%	-20.2%
COc1ccc(-c2nc(N)ncc2-c2csc(C)n2)c(O)c1	-13.9%	-13.3%
O=C1[C@H]2[C@@H](c3ccccc3)N[C@]3(CCCN(Cc4ccco4)C3=O)[C@H]2C(=O)N1Cc1ccccc1	-29.1%	-22.0%
COc1ccccc1CN(C)C(=O)c1cccc(S(=O)(=O)N2CCc3ccccc3C2)c1	-15.2%	-4.9%
CC1(C)O[C@@H]2[C@H](O1)[C@@H](COS(=O)(=O)O)O[C@H]2n1c(=S)[nH]c2c(=O)[nH]c(N)nc21	-15.6%	i
CC(CNS(=O)(=O)c1ccccc1)Sc1nncn1C (centres undefined)	-15.9%	-10.6%
Cc1ccc(CNC(=O)CCCn2nc(C)n3c(cc4sccc43)c2=O)cc1	-1.6%	-9.2%
CCOc1ccccc1NC(=O)c1ccc2c(c1)C(=O)N(CC(C)C)C2=O	-1.4%	i
O=C(NCc1ccccc1)C1C(=O)Nc2ccccc2C(=O)N1c1ccc2c(c1)OCCO2 (centres undefined)	10.1%	-5.6%
O=C(CSCc1ccc(Cl)cc1)Nc1ccc(Br)cc1C(=O)O	-4.9%	i
O=C(NCCSCc1ccccc1)c1ccc(F)cc1	-10.7%	-11.4%
Cc1ccsc1CN(C(=O)COc1ccc(Br)cc1)C1CCS(=O)(=O)C1 (centres undefined)	-9.9%	-14.7%
Cn1c(O)c(N=NC(=O)CNC(=O)c2ccco2)c2ccccc21	-11.8%	-0.6%
Brc1cccc(C2CC(c3ccccc3)n3nnnc3N2)c1 (centres undefined)	-13.5%	-12.1%
Cc1ccccc1NC(=O)CSc1ccc(-c2ccccn2)nn1	u	u
Cc1cnc(-n2ncc(C(=O)N(C)CC3COCCO3)c2C2CC2)nc1-c1cccs1 (centres undefined)	1.2%	-8.9%
COc1ccc(CN(C(=O)c2oc3cc(C)ccc3c2C)C2CCS(=O)(=O)C2)cc1OC (centres undefined)	-11.3%	-13.0%
CCN(CC)CCNC(=O)Nc1ccc2c(c1)N(Cc1ccccc1)C(=O)c1ccccc1S2	u	u

A second format for part of the listing above:
| structure | Vaccinia Venus | Vaccinia mCherry |
| --- | --- | --- |
| CC1(C)O[C@@H]2[C@H](O1)[C@@H](COS(=O)(=O)O)O[C@H]2n1c(=S)[nH]c2c(=O)[nH]c(N)nc21 | -15.6% | i |
| COc1ccc(CN(C(=O)c2oc3cc(C)ccc3c2C)C2CCS(=O)(=O)C2)cc1OC (centres undefined) | -11.3% | -13.0% |
| O=C(CSCc1ccc(Cl)cc1)Nc1ccc(Br)cc1C(=O)O | -4.9% | i |
| Cc1ccccc1NC(=O)CSc1ccc(-c2ccccn2)nn1 | u | u |
| CCOc1ccccc1NC(=O)c1ccc2c(c1)C(=O)N(CC(C)C)C2=O | -1.4% | i |
| Cn1c(O)c(N=NC(=O)CNC(=O)c2ccco2)c2ccccc21 | -11.8% | -0.6% |
| Cc1ccsc1CN(C(=O)COc1ccc(Br)cc1)C1CCS(=O)(=O)C1 (centres undefined) | -9.9% | -14.7% |

The list continues:
SMILES	Vaccinia Venus	Vaccinia mCherry
CCOC(=O)C1CCCN(C(=O)c2cc(C)n(C(C)(C)C)n2)CC1 (centres undefined)	-7.0%	32.8%
Cc1cc(OCCCC(=O)NNC(=O)c2ccncc2)ccc1Cl	-16.9%	u
COc1c(Cl)cc(Cl)cc1CNCCSc1nnnn1C	0.3%	-2.8%
O=C(NCc1ccccc1)c1ncn(Cc2ccccc2)c1C(=O)NCc1ccccc1	-15.0%	-3.3%
CC1(C)C2CCC1(CS(=O)(=O)Nc1ccc(S(=O)(=O)N3CCCC3)cc1)C(=O)C2 (centres undefined)	-18.7%	-2.3%
COc1ccccc1CNC(=O)CCS(=O)(=O)Cc1ccc(C)cc1	-10.0%	-22.0%
Cc1ccc(CNC(=O)C2CCC(CNc3c(N4CCOCC4)c(=O)c3=O)CC2)cc1 (centres undefined)	8.7%	-5.5%
O=C(Nc1ccc(Cl)cc1)c1ccc(S(=O)(=O)N2CCOCC2)cc1	-11.5%	-8.5%
CCOc1ccc(CCNC(=O)Cn2cccc2C(=O)c2ccccc2C)cc1OCC	-13.0%	i
Cc1ccc2nc(-c3cccc(NC(=O)c4ccc(Br)o4)c3)oc2c1	6.0%	-3.2%
Cc1ccccc1N(C(=O)c1snc(C(N)=O)c1N)C(C(=O)NCC1CCCO1)c1ccc(F)cc1 (centres undefined)	-13.6%	-3.1%
Cc1ccc(NC(=O)COC(=O)c2cc(Cl)cc(Cl)c2)c(Br)c1	-14.7%	i
CCN1CCN(Cc2c(O)ccc3c(C)c(-c4ccc(OC)cc4)c(=O)oc23)CC1	-12.5%	-9.4%
CC1CN(c2ccc(NC(=O)c3ccco3)cc2C(=O)O)CC(C)O1 (centres undefined)	-7.5%	-5.6%
CC(=O)Nc1sc(C)c(C)c1C(=O)Nc1ccc(C)cc1	2.6%	-10.6%
COc1ccccc1N1CCN(C(=O)Cn2ncc3c2-c2cc(C)ccc2OC3)CC1	-5.4%	-12.3%
COc1ccc(CNC(=O)c2cc3cccc(OC)c3oc2=N)cc1	-14.8%	-1.2%
Cc1cc(C)cc(NC(=O)C2CCN(c3nccs3)CC2)c1	-9.9%	-15.2%
Cc1ccc(C)c(N2CCN(CC(=O)Nc3ccc4[nH]c(=O)[nH]c4c3)CC2)c1	-16.9%	-26.3%
Cc1ccc(OCCSc2nc3ccccc3n2CCC(=O)O)cc1C	-3.2%	-7.0%
CN(C)S(=O)(=O)c1cc(S(=O)(=O)N(C)C)c(Cl)cc1N	0.4%	i
CCC(C)NC(=O)CN1C(=O)c2cccnc2Sc2ccccc21 (centres undefined)	-11.1%	-7.6%
CCN(CCn1cccn1)C(=O)C1CCC(=O)N(CC2CCCCC2)C1 (centres undefined)	-9.0%	-15.7%
COc1cc(CCC(=O)OCC(=O)Nc2c(C)cccc2C(C)C)cc(OC)c1OC	-9.5%	-15.0%
O=C(COC(=O)Cc1c(F)cccc1Cl)NC(=O)Nc1ccccc1F	-20.0%	-21.7%
Cc1ccc(-c2csc3ncnc(NCCC(=O)O)c23)cc1C	-8.7%	i
CCc1ccccc1N(CC)C(=O)c1c(C)oc2ncnc(N3CCOCC3)c12	-11.8%	-2.7%
CCC(=O)Nc1cccc(C(=O)OC)c1	-12.4%	-15.9%

From PubChem
